NOMO-1 viab = NOMO-1 AML cell viability reduction, primary screen, STK33 inhibitor project, CellTiter-Glo luminescence; NOMO-1 AML viability, 72 h; inhibition, % (test concentration not listed); 37,000 compounds, 7.5% hits;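 active means most replicates above 80%; inconclusive means exactly half above 80%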;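 further: wells of about 30 µL received 25 nL stock; 0% = median of vehicle wells and 100% = reference inhibitor level; the first replicate is given; inactives centre near 10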
* marks the source's active call; other numbers are inactive results; ? = inconclusive.

Molecule,NOMO-1 viab
C[C@H]1CN([C@@H](C)CO)C(=O)c2cccc(NC(=O)CCCCCC(=O)Nc3ccccc3N)c2O[C@@H]1CN(C)Cc1ccncc1,13
CCOc1ccccc1Nc1nc(N)nc(CN2CCCCC2C)n1 (configuration not stated),28
C[C@H](CO)N1C[C@H](C)[C@H](CN(C)Cc2ccc3c(c2)OCO3)Oc2ccc(NC(=O)c3ccncc3)cc2CC1=O,-5
C[C@@H]1CN([C@H](C)CO)C(=O)c2cccc(NC(=O)C3CCOCC3)c2O[C@@H]1CN(C)C(=O)Nc1ccc2c(c1)OCO2,-12
CCC(Sc1ccccn1)C(=O)Nc1cccc([N+](=O)[O-])c1 (configuration not stated),-15
CC(NS(=O)(=O)c1ccccc1)C(=O)Nc1ccc(Cl)c(C(F)(F)F)c1 (configuration not stated),55
C[C@@H]1CN([C@@H](C)CO)C(=O)c2cc(NC(=O)Cc3ccccc3)ccc2O[C@@H]1CN(C)Cc1ccc(-c2ccccc2)cc1,35
COc1ccc(NC(=O)Nc2ccc3c(c2)CC(=O)N([C@@H](C)CO)C[C@@H](C)[C@@H](CN(C)S(=O)(=O)c2ccc(OC)cc2)O3)cc1,19
C[C@H]1CN([C@@H](C)CO)C(=O)Cc2cc(NC(=O)CCCCCC(=O)Nc3ccccc3N)ccc2O[C@@H]1CN(C)C(=O)Nc1ccc(F)cc1,0
CC(C)c1ccc2c(c1)CCC1[C@](C)(C(=O)O)CCC[C@]21C (some centres not stated),19
C[C@@H]1CN([C@@H](C)CO)C(=O)Cc2cc(NC(=O)Cn3cnnn3)ccc2O[C@@H]1CN(C)C(=O)Nc1ccc(C(F)(F)F)cc1,-6
CC(=O)c1ccc(NC(=O)CNS(=O)(=O)c2cccc(Cl)c2)cc1,21
CC(=O)Nc1cccc(NS(=O)(=O)c2ccc(C)cc2)c1,8
C[C@H](CO)N1C[C@H](C)[C@H](CN(C)S(=O)(=O)c2cn(C)cn2)Oc2c(NS(=O)(=O)c3cn(C)cn3)cccc2C1=O,5
C[C@H]1CN([C@@H](C)CO)C(=O)Cc2cc(NC(=O)Cc3cn(C)c4ccccc34)ccc2O[C@@H]1CN(C)C,15
CNC[C@@H]1Oc2ccc(NS(=O)(=O)c3ccc(OC)cc3)cc2C(=O)N([C@H](C)CO)C[C@H]1C,26
Cc1noc(C)c1NC(=O)N(C)C[C@H]1Oc2ccc(NS(=O)(=O)c3c(C)noc3C)cc2C(=O)N([C@@H](C)CO)C[C@H]1C,6
COc1ccc(Cl)cc1N(CC(=O)Nc1ccccc1F)S(C)(=O)=O,31
C[C@H]1CN([C@@H](C)CO)C(=O)Cc2cc(NC(=O)CCCCCC(=O)Nc3ccccc3N)ccc2O[C@@H]1CN(C)Cc1ccc2c(c1)OCO2,34
C[C@@H]1CN([C@@H](C)CO)C(=O)Cc2cc(NC(=O)C3CC3)ccc2O[C@@H]1CN(C)S(=O)(=O)c1cccs1,-5

Grouped by structure, those above containing a CF3 group.
Molecule,NOMO-1 viab
CC(NS(=O)(=O)c1ccccc1)C(=O)Nc1ccc(Cl)c(C(F)(F)F)c1 (configuration not stated),55
C[C@@H]1CN([C@@H](C)CO)C(=O)Cc2cc(NC(=O)Cn3cnnn3)ccc2O[C@@H]1CN(C)C(=O)Nc1ccc(C(F)(F)F)cc1,-6

Remaining list, next part:
Molecule,NOMO-1 viab
O=C1N=c2ccccc2=N/C1=N\C(=S)Nc1ccccc1,122*
Cc1ccc(OCC(=O)Nc2ccc(Br)cc2C(=O)O)cc1C,-7
CC(C)NC(=O)Nc1ccc2c(c1)CC(=O)N([C@@H](C)CO)C[C@@H](C)[C@@H](CN(C)C(=O)NC(C)C)O2,-7
Cc1ccc(S(=O)(=O)N(C)C[C@@H]2Oc3c(NS(=O)(=O)c4ccccc4)cccc3C(=O)N([C@@H](C)CO)C[C@H]2C)cc1,7
COc1cc(/C(C)=C/C(C)O)oc(=O)c1C (configuration not stated),17
O=C(O)COc1ccc(NC(=O)c2ccccc2-c2ccccc2C(=O)O)cc1,16
CSC1=NC2(CCCCC2)NC2=C1CCCC2,20
Cc1ccc(S(=O)(=O)N(C)C[C@@H]2Oc3ccc(NC(=O)CCCN(C)C)cc3C(=O)N([C@H](C)CO)C[C@@H]2C)cc1,-2
COc1ccc(NC(=O)Nc2cccc3c2O[C@H](CN(C)Cc2ccc(C(=O)O)cc2)[C@H](C)CN([C@@H](C)CO)C3=O)cc1,9
C[C@@H]1CN([C@H](C)CO)C(=O)c2cccc(NS(C)(=O)=O)c2O[C@H]1CN(C)Cc1ccc(C(F)(F)F)cc1,-5
CC(=O)Nc1ccc(S(=O)(=O)Nc2ccc(Oc3cccnc3)cc2)cc1,58
CS(=O)(=O)N(CC(=O)Nc1cc(C(F)(F)F)ccc1Cl)c1ccc(Br)cc1,37
C[C@@H]1CN([C@H](C)CO)C(=O)c2cc(NC(=O)Cc3cn(C)c4ccccc34)ccc2O[C@H]1CN(C)C(=O)Nc1ccc2c(c1)OCO2,-4
OCCOCCNc1ncnc2sc(-c3ccccc3)cc12,32
C[C@@H]1CCCCO[C@@H](CN(C)C(=O)c2ccccc2)[C@@H](C)CN([C@H](C)CO)C(=O)c2cc(NC(=O)c3ccccc3)ccc2O1,15
OC(COc1ccc2ccccc2c1Br)Cn1cnc2ccccc21 (configuration not stated),30
O=C(Nc1ccccc1C(=O)NCc1ccco1)c1ccccc1I,42
C[C@H]1CN([C@@H](C)CO)C(=O)c2cc(NC(=O)CCCN(C)C)ccc2O[C@H]1CN(C)S(C)(=O)=O,-22
COc1ccc(S(=O)(=O)Nc2cccc3c2O[C@H](CN(C)C(=O)Nc2cccc4ccccc24)[C@@H](C)CN([C@H](C)CO)C3=O)cc1,-2
CCC(C)C(=O)c1c(O)cc2c(c1O)CC(CC=C(C)C)C(C)(C)O2 (configuration not stated),88*
Cc1noc(C)c1S(=O)(=O)Nc1ccc2c(c1)C(=O)N([C@H](C)CO)C[C@@H](C)[C@@H](CN(C)Cc1ccccc1)O2,-1
COc1ccc(S(=O)(=O)N(C)C[C@H]2Oc3ccc(NC(=O)C4CC4)cc3C(=O)N([C@@H](C)CO)C[C@@H]2C)cc1,1
COc1ccc(NC(=O)Nc2ccc3c(c2)CC(=O)N([C@@H](C)CO)C[C@H](C)[C@@H](CN(C)S(=O)(=O)c2ccc(C)cc2)O3)cc1,24
OCCNc1ncnc2c1oc1ccccc12,8
C[C@@H]1CCCCO[C@H](CN(C)Cc2ccc(C(=O)O)cc2)[C@@H](C)CN([C@H](C)CO)C(=O)c2cc(NS(=O)(=O)c3ccc(F)cc3)ccc2O1,44
COc1ccc(S(=O)(=O)N(C)C[C@@H]2Oc3ccc(NC(=O)Cc4ccccc4)cc3C(=O)N([C@@H](C)CO)C[C@H]2C)cc1,26
C[C@@H]1CN([C@H](C)CO)C(=O)c2cccc(NC(=O)Nc3ccc(F)cc3)c2O[C@H]1CN(C)C(=O)Nc1ccccc1,29
C[C@@H]1CN([C@H](C)CO)C(=O)Cc2cc(NC(=O)Nc3ccc4c(c3)OCO4)ccc2O[C@@H]1CN(C)Cc1ccccc1,13
Cc1ccc(C(C)C)c(OCCSc2nc(N)cc(N)n2)c1,51
C[C@@H]1CN([C@@H](C)CO)C(=O)c2cc(NC(=O)C3CCCCC3)ccc2O[C@H]1CN(C)C(=O)Nc1ccc2c(c1)OCO2,13
C[C@H]1CN([C@@H](C)CO)C(=O)c2cccc(NC(=O)CCCCCC(=O)Nc3ccccc3N)c2O[C@@H]1CN(C)S(=O)(=O)c1ccccc1,60
COc1ccccc1N(CC(=O)Nc1c(C)cc(C)cc1C)S(C)(=O)=O,9
C[C@H]1CN([C@@H](C)CO)C(=O)Cc2cc(NC(=O)Cc3cn(C)c4ccccc34)ccc2O[C@H]1CN(C)Cc1ccc(C(=O)O)cc1,-1
Cc1noc(C)c1S(=O)(=O)Nc1ccc2c(c1)CC(=O)N([C@H](C)CO)C[C@@H](C)[C@H](CN(C)C(=O)NC1CCCCC1)O2,16
Cc1ccc(S(=O)(=O)N(C)C[C@@H]2Oc3c(NC(=O)Nc4ccc(F)cc4)cccc3C(=O)N([C@H](C)CO)C[C@H]2C)cc1,13
CC(C)NC(=O)Nc1ccc2c(c1)CC(=O)N([C@H](C)CO)C[C@H](C)[C@H](CN(C)C(=O)NC(C)C)O2,16
C[C@@H]1CN([C@H](C)CO)C(=O)Cc2cc(NC(=O)Cn3cnnn3)ccc2O[C@@H]1CN(C)Cc1ccc(Oc2ccccc2)cc1,10
CCOC(=O)c1cc(C#N)c(Nc2ccccc2OC)nc1C(F)(F)F,23
COc1ccc(NC(=O)CC(C(=O)O)N2CCCCC2)cc1 (configuration not stated),7
Cc1ccc(S(=O)(=O)N(C)C[C@H]2Oc3ccc(NS(C)(=O)=O)cc3CC(=O)N([C@@H](C)CO)C[C@H]2C)cc1,1

SMILES: COc1ccc(NC(=O)Nc2ccc3c(c2)CC(=O)N([C@@H](C)CO)C[C@H](C)[C@@H](CN(C)Cc2ccc(Cl)c(Cl)c2)O3)cc1
  NOMO-1 viab: 46
SMILES: C[C@@H]1CN([C@H](C)CO)C(=O)c2cc(NC(=O)Cc3ccccc3)ccc2O[C@H]1CN(C)S(=O)(=O)c1ccccc1
  NOMO-1 viab: -4
SMILES: C[C@H](CO)N1C[C@H](C)[C@@H](CN(C)CC2CCCCC2)Oc2ccc(NS(=O)(=O)c3cn(C)cn3)cc2C1=O
  NOMO-1 viab: 6
SMILES: C[C@@H]1CN([C@@H](C)CO)C(=O)c2cccc(NC(=O)C3CCOCC3)c2O[C@H]1CN(C)CC1CCCCC1
  NOMO-1 viab: 31
SMILES: Cc1cc(C(=O)Nc2cccc3c2O[C@@H](CN(C)S(=O)(=O)c2ccc(F)cc2)[C@@H](C)CN([C@H](C)CO)C3=O)n(C)n1
  NOMO-1 viab: 20
SMILES: COc1ccc(S(=O)(=O)Nc2ccc3c(c2)C(=O)N([C@H](C)CO)C[C@H](C)[C@H](CN(C)C)O3)cc1
  NOMO-1 viab: 6
SMILES: O=C(CSc1nnc(-c2ccco2)o1)c1ccc2c(c1)OCCO2
  NOMO-1 viab: 16
SMILES: Cc1cc(C)c(NC(=O)CN(C)S(=O)(=O)c2ccc(Br)cc2)c(C)c1
  NOMO-1 viab: 50
SMILES: C[C@@H]1CN([C@H](C)CO)C(=O)c2cc(NS(=O)(=O)c3ccc(F)cc3)ccc2O[C@H]1CN(C)Cc1ccc(Cl)c(Cl)c1
  NOMO-1 viab: 18
SMILES: C[C@@H]1CN([C@@H](C)CO)C(=O)c2cccc(NS(=O)(=O)c3ccc(Cl)cc3)c2O[C@@H]1CN(C)Cc1ccc2c(c1)OCO2
  NOMO-1 viab: 24

SMILES: C[C@@H]1CN([C@@H](C)CO)C(=O)c2cc(NC(=O)CCN3CCOCC3)ccc2O[C@H]1CN(C)C(=O)Nc1ccc(F)cc1
  NOMO-1 viab: 0
SMILES: Cc1ccc(-c2nnc(SCC(=O)Nc3c(Cl)cc(Cl)cc3Cl)n2C)cc1
  NOMO-1 viab: 13
SMILES: C=CCOC1=NC2C(C(=O)N(C)C(=O)N2C)N1C (configuration not stated)
  NOMO-1 viab: 19
SMILES: C[C@H]1CN([C@@H](C)CO)C(=O)c2cccc(NC(=O)C3CC3)c2O[C@@H]1CN(C)C(=O)Nc1cccc2ccccc12
  NOMO-1 viab: 24
SMILES: CC(C)C1CCC2(C)CCC(O)C(C)(O)C2C1OC(=O)/C=C/c1ccccc1 (configuration not stated)
  NOMO-1 viab: 68
SMILES: C[C@H]1CN([C@@H](C)CO)C(=O)c2cccc(NC(=O)c3nc4ccccc4s3)c2O[C@H]1CN(C)C(=O)NC1CCCCC1
  NOMO-1 viab: 42
SMILES: O=C(CSc1nc(-c2ccccc2)c(-c2ccccc2)[nH]1)Nc1ccc(F)cc1
  NOMO-1 viab: ?
SMILES: CNC(=O)CN(c1ccc(F)cc1)S(=O)(=O)c1ccc2c(c1)OCCO2
  NOMO-1 viab: -6
SMILES: CC(C)(C)NC(=O)C12CC3CCC(CC(C3)C1)C2
  NOMO-1 viab: 21
SMILES: C[C@@H]1CN([C@H](C)CO)C(=O)c2cccc(NS(=O)(=O)c3ccc(Cl)cc3)c2O[C@@H]1CN(C)S(=O)(=O)c1ccc(F)cc1
  NOMO-1 viab: 14

Filtered by structure: those above with two or more sulfur atoms.
SMILES: C[C@H](CO)N1C[C@H](C)[C@H](CN(C)S(=O)(=O)c2cn(C)cn2)Oc2c(NS(=O)(=O)c3cn(C)cn3)cccc2C1=O
  NOMO-1 viab: 5
SMILES: C[C@@H]1CN([C@@H](C)CO)C(=O)Cc2cc(NC(=O)C3CC3)ccc2O[C@@H]1CN(C)S(=O)(=O)c1cccs1
  NOMO-1 viab: -5
SMILES: Cc1ccc(S(=O)(=O)N(C)C[C@@H]2Oc3c(NS(=O)(=O)c4ccccc4)cccc3C(=O)N([C@@H](C)CO)C[C@H]2C)cc1
  NOMO-1 viab: 7
SMILES: Cc1ccc(S(=O)(=O)N(C)C[C@H]2Oc3ccc(NS(C)(=O)=O)cc3CC(=O)N([C@@H](C)CO)C[C@H]2C)cc1
  NOMO-1 viab: 1
SMILES: C[C@@H]1CN([C@H](C)CO)C(=O)c2cccc(NS(=O)(=O)c3ccc(Cl)cc3)c2O[C@@H]1CN(C)S(=O)(=O)c1ccc(F)cc1
  NOMO-1 viab: 14

The listing continues:
SMILES: COc1ccc(NC(=O)Nc2cccc3c2O[C@H](CN(C)S(=O)(=O)c2ccc(OC)cc2)[C@@H](C)CN([C@H](C)CO)C3=O)cc1
  NOMO-1 viab: -1
SMILES: Cc1ccc(NC(=O)CSc2nnc(C)n2-c2ccccc2)cc1C
  NOMO-1 viab: 0
SMILES: C[C@@H]1CCCCO[C@H](CN(C)C(=O)C2CCCCC2)[C@@H](C)CN([C@H](C)CO)C(=O)c2cc(NC(=O)Nc3ccc(C(F)(F)F)cc3)ccc2O1
  NOMO-1 viab: ?
SMILES: COc1cc(S(=O)(=O)n2cnc3cc(C)c(C)cc32)c(OC)cc1Cl
  NOMO-1 viab: 23
SMILES: CC(C)=CCc1c(O)cc2occ(-c3ccc4c(c3)OCO4)c(=O)c2c1O
  NOMO-1 viab: 41
SMILES: COc1ccc(NC(=O)CN(c2ccccc2F)S(C)(=O)=O)cc1
  NOMO-1 viab: -3

This is a subset (hit frequency here may not be typical).
